HSD17B inh: inhibitors of human HSD17B10 dehydrogenase | actives 7.6% (n = 75,000) | Q99714 | recombinant HSD17B10, NADH fluorescence kinetic; many of its hits are not listed in these tables | Potency, µM (top dose mostly 57.1 µM), for inactives: at the top dose activity change, negative = inhibition, usual class: inhibitors | AID 893; active means well fitted inhibition curve with a large enough effect; inconclusive means small, poorly fitted or top-dose-only effect; inactive means no such curve, though single readings can be large or run the other way;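 further: the protocol describes HADH2 (HSD17B10) and not the HSD17B4 of the title; nearly all actives have a fitted effect of over 70% in size; most hits overshoot -100% by far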
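Activity followed as NADH fluorescence increase (ex 360, em 450 nm) every 30 seconds for 4 min, using final 90 uM beta-hydroxybutyryl CoA and 1 mM NAD+. Recombinant His-tagged enzyme, 20 nM, pH 9.0 Tris buffer, 15 min compound preincubation.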
Active calls of the source: *; ? = inconclusive; [ ] = another dose, or the depositor's remark. On the % scale 0 is the no-effect control and ±100 the full control effect; potency means the concentration at half of the fitted maximal effect.

SMILES | HSD17B inh
OCC1O[C@H](O[C@H]2C(O)C(O)C(O)O[C@@H]2CO)C(O)C(O)C1O (stereo partly specified) | 1%
Cc1cc(N2CCOCC2)c2c(N)c(Br)cc(C)c2n1 | 5%
CCOC(=O)CC1(C)NC(=O)c2c(C)sc(C(=O)OCC)c2N1 (stereo unspecified) | 20µM*
CCc1ccc(S(=O)(=O)NCc2cn3cccc(C)c3n2)s1 | 7%
O=C(CSc1nnc(-c2ccco2)o1)NCC(=O)c1ccccc1 | 11%
Cc1ccc2c(c1)N(CC(=O)NCCN1CCOCC1)C(=O)CO2 | 14%
N#Cc1nc(-c2ccc(OCc3ccc(Cl)cc3)cc2)oc1NCCCn1ccnc1 | 10µM*
Cc1ccc(-c2oc3ccccc3c(=O)c2O)cc1 | -21%
O/N=C1/CCc2cccc3cccc1c23 | -18%
O=C(Nc1ccccc1)N1CCCC2(CCNCC2)C1 | 3%
CCOc1ccc2nc(NC(=O)c3cnccn3)sc2c1 | 4%
Cc1cccc(-c2nc(CS(=O)CC(=O)N3CCCCC3)c(C)o2)c1 (stereo unspecified) | -7%
CCN(CC)c1cccc(OC2=NS(=O)(=O)c3ccccc32)c1 | 1%
C/C=C\C1=C(CO)[C@H](O)[C@H]2OC2[C@@H]1O (stereo partly specified) | 1%[11.4 µM]
COc1ccc(NC(=O)CCCN2C(=O)CCC2=O)cc1Cl | -4%
Cc1sc(NC(=O)COc2cccc(-n3cnnn3)c2)c(C#N)c1C | 4%
O=C(NCc1ccc2c(c1)OCO2)c1ccc2c(c1)C(=O)N(Cc1cccnc1)C2=O | 0%
Cc1ccc(S(=O)(=O)N2CCN(S(=O)(=O)N3CCCCC3)CC2)c(C)c1 | -5%
Cc1ccc2[nH]c3c(=O)n(CCCN4CCOCC4)cnc3c2c1 | 25µM*
O=C1OC(Nc2ccc3c(c2)OCO3)c2ccccc21 (stereo unspecified) | -10%
Cc1cccc(NC(=O)c2cnc3scc(C)n3c2=O)c1 | ?
CC(C)C1=CC2=CC[C@@H]3[C@](C)(CO)CCC[C@]3(C)C2CC1 (stereo partly specified) | 10%
COc1ccc(OC)c(S(=O)(=O)n2cccn2)c1 | 0%
COc1ccc(CCNC(=O)c2ccccc2NC(=O)c2ccco2)cc1OC | 3%
O=C(CN1CCC(n2nnc3ccccc32)CC1)Nc1ccc2c(c1)CCC2 | -7%

Seven compounds drawn at random from the list so far, as already listed:
SMILES | HSD17B inh
O=C(NCc1ccc2c(c1)OCO2)c1ccc2c(c1)C(=O)N(Cc1cccnc1)C2=O | 0%
Cc1cc(N2CCOCC2)c2c(N)c(Br)cc(C)c2n1 | 5%
Cc1ccc(-c2oc3ccccc3c(=O)c2O)cc1 | -21%
COc1ccc(NC(=O)CCCN2C(=O)CCC2=O)cc1Cl | -4%
Cc1ccc(S(=O)(=O)N2CCN(S(=O)(=O)N3CCCCC3)CC2)c(C)c1 | -5%
CCc1ccc(S(=O)(=O)NCc2cn3cccc(C)c3n2)s1 | 7%
Cc1ccc2c(c1)N(CC(=O)NCCN1CCOCC1)C(=O)CO2 | 14%

Further compounds follow.
SMILES | HSD17B inh
CCOC(=O)CSc1nc2c(c(=O)n1-c1ccc(OCC)cc1)SCC2 | -2%
COC(=O)Cn1c(CN2CCN(c3ccc(F)cc3)CC2)nc2c1c(=O)n(C)c(=O)n2C | -7%
COc1ccc(C(=O)N2CCC3(CCN(C)CC3)CC2)cc1 | 4%
C=C(C)CSc1nc(N)cc(=O)[nH]1 | 7%
CC(=O)/C(C)=N\O | 7%
Cc1ncc(CSc2ccccc2N)c(CO)c1O | 8%[11.4 µM]
O=C(COc1ccc2ccccc2c1Br)N1CCN(c2ccccn2)CC1 | -1%
COc1ccc(CCNC(=O)CN(c2ccc(OC)c(OC)c2)S(C)(=O)=O)cc1 | -3%
CS(=O)(=O)N1CCN(C(=O)c2cccnc2)CC1 | -11%
c1ccc(CNc2ncnc3nc[nH]c23)nc1 | 9%
CCOc1ccc(Cc2nc(C)c(CC(=O)N3CCCCC3)c(=O)[nH]2)cc1 | 8%
CN1C(=O)C(O)(C2COC(C)(C)CC2=O)c2ccccc21 (stereo unspecified) | 1%
CCCCn1c(SCC(=O)Nc2ccc3c(c2)OCO3)nc2c1c(=O)n(C)c(=O)n2C | 6%
COc1ccc2[nH]cc(CCNc3ccnc(-c4ccc5c(c4)OCO5)n3)c2c1 | ?
Cc1[nH]nc2c1C1(CCN(C(=O)c3ccccc3)CC1)C(C#N)=C(N)O2 | 3%
Cn1c(NCc2ccco2)nc2c1c(=O)n(Cc1ccc(Br)cc1)c(=O)n2C | -4%
CCCCc1nc2ccccc2c(=O)n1NC(=O)c1c(O)c2c(n(CC(C)C)c1=O)CCCC2 | 16%
COC(=O)N1CCC2(CCN(C(=O)Nc3cccc(F)c3)CC2)CC1 | 9%
Cc1cc(C)n(-c2nnc3n2N=C(c2c[nH]c4ccccc24)CS3)n1 | -9%
CCCCn1cc(SCC(=O)O)c2ccccc21 | ?
Cc1oc2cc(OCC(=O)O)ccc2c(=O)c1Oc1ccccc1 | -11%
O=C(Cn1cc2c(n1)CCCCC2)NCCCN1CCOCC1 | 1%
CCN(CC)CCSc1nc(O)c(C(C)C)c(=O)[nH]1 | 3%
Cc1cc2c(=O)n(NC(N)=O)c(C)nc2s1 | 10%
O=C(C(c1ccccc1)c1ccccc1)N1CCN(Cc2ccncc2)CC1 | 2%

Of the compounds above, three have a cyano group:
SMILES | HSD17B inh
N#Cc1nc(-c2ccc(OCc3ccc(Cl)cc3)cc2)oc1NCCCn1ccnc1 | 10µM*
Cc1sc(NC(=O)COc2cccc(-n3cnnn3)c2)c(C#N)c1C | 4%
Cc1[nH]nc2c1C1(CCN(C(=O)c3ccccc3)CC1)C(C#N)=C(N)O2 | 3%

Part of the list above in a different format:
SMILES	HSD17B inh
COc1ccc(C(=O)N2CCC3(CCN(C)CC3)CC2)cc1	4%
C=C(C)CSc1nc(N)cc(=O)[nH]1	7%

New compounds follow.
SMILES | HSD17B inh
Cc1nnc(SCC(=O)N2CCN(S(=O)(=O)c3ccccc3)CC2)n1Cc1ccccc1 | 5%
COc1ccc(NC(=O)C23CCC(C)(C(=O)O2)C3(C)C)cc1 (stereo unspecified) | -7%
O=C(Nc1cnn(C23CC4CC(CC(C4)C2)C3)c1)c1cnn2c(C(F)(F)F)cc(-c3ccco3)nc12 | 1%
COc1ccc(C(C)=O)c(O)c1 | -11%
CCCS(=O)(=O)NCCc1cc2ccc(OC)cc2[nH]c1=O | 32µM*
CC(=O)c1sc(NC(=O)CN2C(=O)CCC2=O)nc1C | 1%
COc1ccccc1NC(=O)c1ccccc1SC | 9%
Cc1ccc(-c2nnc(CSc3nnc(C)s3)o2)cc1 | 3%
CC[C@@H](c1ccccc1)n1c(=O)n2n(c1=O)[C@H]1[C@H](O)[C@H]3O[C@@H]3/C(=N/OCC(C)C)[C@@H]1CC2 | 7%[11.4 µM]
C=CCn1c(C)cc(C(=O)COC(=O)COc2ccccc2C#N)c1C | 2%
N#Cc1nc(-c2ccc(OCc3ccccc3Cl)cc2)oc1NCCCn1ccnc1 | ?
CC(=O)Cc1nsc(NC(=O)c2ccc(Br)o2)n1 | -4%
CN(C(=O)COc1nnc(-c2cccs2)c(-c2cccs2)n1)c1ccccc1 | -9%
CCC(=O)Nc1cc(NC(=O)CSc2ncc(-c3ccc(F)cc3)n2Cc2ccco2)ccc1C | ?
CCOC(=O)c1ccc2[nH]c(C)cc(=O)c2c1 | ?
COc1ccc(CCNC(=O)CSc2nnc(CNC(=O)c3cccs3)o2)cc1OC | 1%
COc1ccc(CNC(=O)C2CCCN(S(=O)(=O)c3cc(C)ccc3OC)C2)cc1 (stereo unspecified) | -9%
Cc1ccnc(NC2c3ccccc3C(=O)N2Cc2ccccc2Cl)c1 (stereo unspecified) | 5%
Clc1ccc2c(c1)N=C(N1CCNCC1)c1ccccc1N2 | 8%
CCN1C(=O)c2ccccc2S(=O)(=O)c2ccc(C(=O)NCc3cccnc3)cc21 | 2%
CCOC(=O)C1CCN(C(=O)c2ccc(OCC)c(OCC)c2)CC1 | 4%
O=C(c1ccco1)N1CCN(C(=O)c2snc3ccc(Cl)cc23)CC1 | -16%
CCc1cccc(NC(=O)CN(c2ccc(OC)cc2)S(=O)(=O)c2c(C)n[nH]c2C)c1 | 3%
CC(C)OC(=O)c1ccc(N2C(=O)C3CC=CCC3C2=O)cc1 (stereo unspecified) | 4%
Clc1ccc(CCNc2ncnc3nc[nH]c23)cc1 | ?
The listing continues.
SMILES | HSD17B inh
Cc1c(NC(=O)CSc2nc3ccccc3n2C)c(=O)n(-c2ccccc2)n1C | 11%
CCN1C(=O)[C@H]2[C@H]3[C@H](O)[C@H](O)C/C(=N/OC[C@@H]4O[C@H](c5ccccc5)C=C[C@@H]4Oc4ccc(OC)cc4)[C@@H]3CC[C@@H]2C1=O | -1%[11.4 µM]
Cc1cc2ncn(C3CC(=O)N(Cc4ccccc4)C3=O)c2cc1C (stereo unspecified) | 4%
O=C(Nc1ccc(N2CCOCC2)c(Cl)c1)c1cccc(F)c1 | 3%
COC(=O)C1CCN(Cc2cc(=O)oc3cc(OC)ccc23)CC1 | -24%
Cc1ccc(-c2noc(-c3cccs3)n2)cc1 | -1%
Cc1cnc(NC(=O)CSc2nnc(Cc3ccccc3)n2C)s1 | 4%
CCOC(=O)C1(C(F)(F)F)N=C(N(C)C)OC(N(C)C)=N1 | -2%
COc1cc(C(=O)OCC(=O)NC2CCCC2)cc(NC(=O)c2ccco2)c1OC | ?
CCOC(=O)c1[nH]c2cc3c(cc2c1CCCN1C(=O)c2ccccc2C1=O)OCCO3 | 5%
COc1cc2cc(C)c3nnc(SCC(N)=O)n3c2cc1OC | -16%
O=C(CC1SC2=NCCN2C1=O)Nc1ccc(Cl)cc1 (stereo unspecified) | 5%
CCCSc1nc2c(cnn2-c2ccc(C)cc2)c(=O)[nH]1 | 0%
COC(=O)Nc1ccccc1C(=O)N1CCCCC1 | 2%
CC(C)OCP(=O)(c1ccccc1)c1ccccc1 | 13%
CCOc1cc2c(cc1OCC)C(c1cc(OC)c(O)c(OC)c1)NCC2 (stereo unspecified) | 9%
CCOC(=O)N1CCN(C(=O)c2cnn(-c3ccccc3)c2NC(=O)c2ccccc2F)CC1 | 6%
O=C(c1ccc2nc(N3CCCCC3)sc2c1)N1CCN(c2ccccn2)CC1 | -1%
CCN1CCN(CC(=O)n2c3c(c4ccccc42)CC(C)CC3)CC1 (stereo unspecified) | -4%
COc1ccc(COC(=O)N/N=C2/C[C@@H](O)[C@@H](O)[C@@H]3[C@H]4C(=O)N(c5ccc(F)cc5F)C(=O)[C@@H]4CC[C@@H]23)cc1 | 2%[11.4 µM]
COc1cc(CC(=O)Nc2nccs2)cc(OC)c1OC | 20%
COCC(=O)N1CCC2(CC1)CN(Cc1ccccc1OC)C2 | 13%
COc1ccc(OCCCC(=O)Nc2ccc3c(c2)OCCO3)cc1 | -19%
CC12CCC(=O)N1C(C(=O)Nc1cccc3ccccc13)CS2 (stereo unspecified) | 3%
O=C(CSc1ccc2nnc(-c3ccncc3)n2n1)Nc1ccccc1F | 6%
Next results
SMILES | HSD17B inh
C=C(C)[C@@H]1CC=C(C(=O)O)CC1 | -3%
CC(=O)c1ccc(OCc2ccccc2)c(C)c1O | -3%[11.4 µM]
N#Cc1nc(COc2ccc(-c3ccccc3)cc2)oc1NCc1cccnc1 | -5%
COc1ccc(N2CCN(C(=O)COc3ccccc3)CC2)cc1 | 0%
O=C(NC1CCCCC1)C(c1ccccc1)N1CCCC1 (stereo unspecified) | -1%
Cc1nc(-c2ccccc2)cc(N2CCCC2)n1 | -10%
CCOC(=O)c1cnc(-n2nc(C)cc2C)nc1N(CC)CC | 4%
COc1ccc(NC(=O)c2ccco2)c(NC(=O)Cc2cccs2)c1 | 0%
Cc1ccc(S(=O)(=O)NC(=O)Nc2cc(C)ccc2F)cc1 | 11%
CC(C)=CCc1c(O)cc2oc(C)cc(=O)c2c1O | -1%
O=C(c1cc2nc3c(c(C(F)(F)F)n2n1)CCc1ccccc1-3)N1CCN2CCCC2C1 (stereo unspecified) | -2%
COc1ccc(C(=O)N2CCC3(CC2)CN(Cc2ccc(C#N)cc2)C3)cc1 | -9%
Cn1c(=O)c(-c2cc(F)cc(F)c2)nc2cnc(Nc3ccccc3)nc21 | 5%
CC(C)c1nnc(N2C(=O)c3oc4ccccc4c(=O)c3C2c2ccco2)s1 (stereo unspecified) | -2%
COc1ccc(-n2c(Cn3nnc4ccccc43)nnc2SCC(=O)O)cc1 | 14%
CCC(CC)C(=O)NCCc1cc2ccc(C)cc2[nH]c1=O | 7%
Cc1ccc(C)c(NC(=O)CSc2nnc(-c3ccccc3)o2)c1 | 4%
CCCCS(=O)(=O)c1sc2nc3c(cc2c1N)CCCC3 | 32µM*
Cc1c(C(=O)OCC(=O)c2c(N)n(CC(C)C)c(=O)n(C)c2=O)oc2ccccc12 | 8%
COC(=O)c1cc(Br)c(=O)n(-c2ccc(C(C)=O)cc2)c1 | -4%
CN(C)CCOC(=O)C1(c2ccccc2)CCOCC1 | 1%
O=C(O)c1cnn(-c2ccccc2)c1-n1cccc1 | -4%
Cc1c(NC(=O)c2ccccc2F)c(=O)n(-c2ccccc2)n1C | 7%
CCN(CC)C(=O)c1cn(C)c2ccc(S(=O)(=O)N(CC)CC)cc2c1=O | 10%
C1=C(CCNC2=NCCCCC2)CCCC1 | 4%
O=S(=O)(c1ccc(S(=O)(=O)N2CCCC3(CCCCC3)C2)cc1)N1CCCCC1 | 4%
O=C(O)COc1cccc(-c2ocnc2-c2nc(-c3ccccc3)c(-c3ccccc3)o2)c1 | 32µM*
O=C(Cn1nc(Cl)nc1Cl)c1cc2ccccc2oc1=O | 25µM*
O=C(c1cnn2cccnc12)N1CCN(c2ccccc2)CC1 | 2%

Screens deposited in PubChem BioAssay by National Center for Advancing Translational Sciences (NCATS).

These rows are one share of the data. The share of hits here may be higher or lower than overall.
